Screening results as filed in PubChem.
T cruzi inh = inhibitors of intracellular T. cruzi growth, primary screen, luminescence, NIH3T3 host cells; AID 1885, 2009; inhibition, % (no concentration beside the values); T. cruzi beta-gal in NIH3T3, 90 h; actives 1.4% (n = 300,000);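 active = mean inhibition across valid replicates above about 55%, limit read from the data; inconclusive = mean below that limit but half or more replicates reach it; inactive = mean below it, under half of replicates reach it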;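 note: signal also drops with host cell toxicity which is not excluded here; 0% = plate median of DMSO wells and 100% = zero luminescence signal; higher percent means less beta-gal luminescence so fewer parasites; stock transfer was 50 nL into about 50 µL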
MLL AF4-AF9 inh = inhibitors of AF4 peptide binding to AF9, primary screen, biochemical, AlphaScreen, biotin-AF4 peptide, FLAG-AF9, single point | AID 651704, 2012 | actives 0.47% (n = 350,000) | Protein AF-9 (Homo sapiens), P42568 | inhibition, % at 10 µM;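 active = every replicate reaching a set inhibition limit, whatever the replicate mean, cut at about 25% in these data; inconclusive = mean inhibition reaches that limit but some replicates miss it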;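 note: 0% = plate neutral control median and 100% = total signal loss; the record names both 10 and 1 µM as test concentration; the first replicate is given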
Target sequence (P42568 whole entry, looked up): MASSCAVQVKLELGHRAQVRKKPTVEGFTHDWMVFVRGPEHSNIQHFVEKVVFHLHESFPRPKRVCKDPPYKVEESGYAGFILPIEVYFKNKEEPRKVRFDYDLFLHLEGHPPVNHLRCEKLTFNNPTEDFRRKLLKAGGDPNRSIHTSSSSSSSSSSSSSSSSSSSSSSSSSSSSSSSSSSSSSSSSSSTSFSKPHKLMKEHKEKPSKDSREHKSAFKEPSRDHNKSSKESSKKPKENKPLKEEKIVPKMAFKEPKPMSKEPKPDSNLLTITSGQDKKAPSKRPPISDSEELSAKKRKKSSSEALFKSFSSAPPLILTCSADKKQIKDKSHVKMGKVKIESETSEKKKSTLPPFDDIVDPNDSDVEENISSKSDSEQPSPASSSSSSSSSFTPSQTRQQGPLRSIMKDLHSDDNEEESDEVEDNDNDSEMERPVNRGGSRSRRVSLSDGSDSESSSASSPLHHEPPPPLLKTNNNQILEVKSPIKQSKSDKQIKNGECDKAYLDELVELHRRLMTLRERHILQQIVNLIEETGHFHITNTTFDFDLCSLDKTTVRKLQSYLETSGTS
LANA-H2A inh = blockers of LANA interaction with H2A/H2B – biochemical, FP readout, HTS, primary screen. Protein LANA1 (Human herpesvirus 8 type P (isolate GK18)), Q9QR71. AID 2629, 2010. cell-free LANA-H2A/H2B peptide, fluorescence polarization. actives 0.6% (n = 320,000). inhibition, % (concentration not given with the values); in the data active = inhibition mostly above about 10%, no sharp cut-off; inactive = mostly below about 6.7%;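 note: stock transfer was 7.5 nL into about 10 µL; 0% = median of vehicle wells and 100% = median of positive control wells; one replicate is shown; the record names a cut of 25% in any replicate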
Beta cell apopt = inhibitors of cytokine-induced beta cell apoptosis, primary screen, luminescence; INS-1E cytokine-induced death, ATP luminescence, 48 h; percent of positive-control rescue, neutral wells zero; actives 0.8% (n = 300,000); AID 435005, 2010; protection from apoptosis, % (no concentration beside the values);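 active = all replicates at 75% or more, or half of them and the mean; inconclusive = half reach 75% but not the mean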;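 note: 0% = cytokine-treated negative control wells and 100% = positive control rescue; higher means more ATP so stronger rescue from cytokine killing; wells of about 40 µL received 100 nL stock; the first replicate is given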
A1 inh = caspase 3/7 activation in MEF A1-2A-BIM cells, primary screen, A1 inhibitor project, cell-based, luminescence, HTS | Caspase-Glo 3/7 luminescence, 3 h; percent of clofoctol response, vehicle zero | actives 0.066% (n = 330,000) | caspase activation, % (test concentration not listed) | AID 2462, 2010;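 active = over half of replicate activation scores above 10%, or exactly half above 10 with the replicate mean above 10; inconclusive = replicate mean below 10 yet half the replicates above 10; inactive = over half of replicates below 10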;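 note: wells of about 30 µL received 50 nL stock; many hits fall short of the cut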
Calb FLC = C. albicans growth inhibition with fluconazole, primary screen, CaCi-2 strain, Alamar Blue fluorescence; growth inhibition, % (test concentration not listed); actives 0.57% (n = 300,000); C. albicans CaCi-2 (fluconazole-resistant clinical isolate) + fluconazole, 48 h; AID 1979, 2009;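 active = most replicates above 75%; inconclusive = exactly half above 75%; inactive = most below 75%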;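 note: all wells also contain fluconazole at 8 µg/ml as a sub-toxic cotreatment; 0% = median of DMSO wells and 100% = median of geldanamycin control wells; wells of about 8 µL received 7.5 nL stock; the first replicate is given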
Vif A3G = inhibitors of Vif binding to APOBEC3G peptide, primary screen, biochemical, TR-FRET, GST-Vif 1-94, biotin-A3G peptide, dose response retest (AID 1117319); Virion infectivity factor (Human immunodeficiency virus type 1 group M subtype B (isolate …; TR-FRET GST-Vif / biotin-A3G peptide binding; higher % means a stronger effect; test concentration not given here; strong numbers were not always called active; inhibition, %, or IC50 in µM where a hit was titrated; actives 0.57% (n = 260,000);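 active = above the screen mean plus three standard deviations and confirmed in dose response; inconclusive = results disagree or hit not tested in dose response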;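 note: Vif residues 1-94 fused to GST binding biotinylated APOBEC3G peptide 110-148; 0% = full assay without inhibitor and 100% = GST in place of GST-Vif; retest series ran down from 100 µM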
RanGTP-Imp inh = inhibitors of RanGTP-importin-beta interaction, primary screen, biochemical, FRET, CFP-Ran, YFP-importin-beta, homogeneous. inhibition, % (concentration not given with the values). actives 1.1% (n = 300,000). Ran GTPase (GTP-bound) - importin-beta complex. cell-free CFP-Ran/YFP-importin-beta FRET ratio;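 active = most replicates above 15%; inconclusive = exactly half above 15%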;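 note: 0% = DMSO wells and 100% = Ran loaded with GDP instead of GTP; wells of about 40 µL received 100 nL stock; the first replicate is given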
* marks the source's active call; other numbers are inactive results; ? = inconclusive; . = no result given.

item	compound	T cruzi inh	MLL AF4-AF9 inh	LANA-H2A inh	Beta cell apopt	A1 inh	Calb FLC	Vif A3G	RanGTP-Imp inh
1	O=C1C2C(C(=O)N1/N=C/c1cc([N+](=O)[O-])ccc1O)C1C=CC2C12CC2 (stereo not drawn)	-8.9	4.4	4.0	7.4	-0.1	51.2	15.5%	-5.0
2	Cc1ccc(CNc2nc(N)c([N+](=O)[O-])c(NCCO)n2)cc1	-9.5	4.2	-4.4	-7.5	0.9	2.6	-3.3%	-1.3
3	CC(C)C(O)(C(=O)NNc1ccccc1)C(C)C	-3.1	-0.8	2.1	-8.7	0.5	3.9	?	3.6
4	Cc1cc(C)c2cc(CN(CC3CCCO3)C(=S)NCc3ccco3)c(=O)[nH]c2c1 (stereo not drawn)	27.1	4.2	3.4	-5.9	-0.4	3.9	2.8%	7.9
5	Cc1cc(N2CC(C(=O)Nc3nccs3)CC2=O)ccc1C(C)C (stereo not drawn)	-5.0	-1.7	4.8	-2.9	1.8	4.2	.	-0.7
6	O=c1[nH]n(-c2cccc3cccnc23)c(=O)c2ccccc12	-16.6	.	-0.9	-5.3	0.8	2.7	11.3%	2.5
7	Cc1ccccc1-c1cc(C(=O)NCc2ccc3c(c2)OCO3)nn1CC1CC(c2cccc([N+](=O)[O-])c2)=NO1 (stereo not drawn)	.	-16.5	1.9	1.6	1.3	.	.	.
8	Cc1ccc(CO/N=C\Cc2snc(Sc3ncc(C(F)(F)F)cc3Cl)c2C#N)cc1	-21.8	.	-0.2	-3.6	-0.8	11.6	3.2%	2.3

Other compounds:
item	compound	T cruzi inh	MLL AF4-AF9 inh	LANA-H2A inh	Beta cell apopt	A1 inh	Calb FLC	Vif A3G	RanGTP-Imp inh
9	COC(=O)c1ccc(C(=O)N2CCCC(N3CCN(c4ccc(F)cc4)CC3)C2)nc1 (stereo not drawn)	-5.1	0.2	-9.7	-6.1	0.4	4.9	.	2.0
10	CCN(CCn1cccn1)Cc1nc(Cc2cccc(F)c2)no1	-7.3	1.7	2.0	-5.6	0.4	3.0	-4.3%	-2.0
11	CCCCNC(=O)COCc1cc(-c2ccc3c(c2)OCO3)on1	-9.8	-5.0	-2.0	-5.3	-1.3	-3.0	-2.5%	-2.1
12	CCOC(=O)Cc1csc(N/C(=N/S(=O)(=O)c2ccc(Cl)cc2)c2ccccc2)n1	16.0	0.9	-5.6	-2.8	0.2	-6.0	0.5%	1.0
13	COc1ccccc1N(CC(=O)NCc1ccccc1)C(=O)CCC(=O)Nc1ccccn1	5.2	.	7.5	-6.9	-0.2	-2.3	-0.2%	-0.4
14	COc1ccc(CC(=O)OCC(=O)Nc2ccc(Br)cc2)cc1	-17.7	-4.9	2.5	2.4	0.5	-3.6	21.8%	-0.2
15	Cc1nc2c(C(=O)NCc3ccc(F)cc3)c[nH]n2c(=O)c1Cl	-2.4	-6.2	0.5	4.1	-0.7	-6.4	?	3.8
16	O=C(c1ccc2c(c1)OCO2)C1CCCN(Cc2cn[nH]c2-c2ccccc2)C1 (stereo not drawn)	3.0	3.3	-1.5	1.8	-0.6	-2.9	.	-0.8

Remaining list, next part
item	compound	T cruzi inh	MLL AF4-AF9 inh	LANA-H2A inh	Beta cell apopt	A1 inh	Calb FLC	Vif A3G	RanGTP-Imp inh
17	CC(=O)Nc1ccc(/C=N/NC(=O)CNC(=O)c2ccccc2)cc1	-1.6	-0.3	-0.1	-1.6	1.3	-2.0	?	1.0
18	O=C(CSc1nc2[nH]ncc2c(=O)[nH]1)NCc1ccccc1Cl	2.7	5.7	-4.6	1.8	-0.2	3.6	23.4%	-2.3
19	O=C(Nc1ncn[nH]1)c1cccc(F)c1	.	-8.1	3.4	-3.5	0.1	.	.	.
20	CC1(C)Cc2c(C#N)c(OCC(=O)c3ccccc3)nc(-c3ccoc3)c2CO1	20.7	.	-0.8	-1.3	-0.9	8.5	-0.8%	-0.6
21	COc1ccc(-c2[nH]ncc2CN(CCO)Cc2cccs2)c(F)c1	-3.3	-0.6	0.1	0.8	?	1.4	3.7%	2.1
22	COCCn1cnc2c1c(=O)n(CC(=O)OCC(=O)NCCCc1ccccc1)c(=O)n2Cc1ccccc1	-12.8	0.9	-1.0	-1.6	-0.1	-6.6	.	0.3
23	CC1(C)CC(=O)C(C=Nc2ccc(Cl)cn2)=C(O)C1	-14.8	.	-6.3	-3.5	0.6	6.5	0.8%	-7.4
24	COc1ccc(N2CCN(S(=O)(=O)CCNC(=O)c3cccs3)CC2)cc1	0.7	-15.9	-0.8	.	-0.4	4.7	-3.1%	-1.7

Continued.
item	compound	T cruzi inh	MLL AF4-AF9 inh	LANA-H2A inh	Beta cell apopt	A1 inh	Calb FLC	Vif A3G	RanGTP-Imp inh
25	Cc1[nH]n(CCC#N)c(=O)c1CC(=O)N1CCN(c2ccccc2)CC1	0.6	.	1.9	-2.8	0.9	-2.8	11.5%	5.6
26	Cc1ccc(NCc2nnc(SCC(=O)Nc3nnc(C)s3)n2C)cc1	-8.8	-1.1	4.6	3.8	0.0	24.4	.	0.1
27	O=C(NC(Nc1ncccn1)C(=O)c1ccccc1)c1ccccc1 (stereo not drawn)	-8.4	.	7.3	.	-0.1	-7.5	8.2%	0.5
28	COc1ccc(/C=C(/NC(=O)c2ccc([N+](=O)[O-])cc2)C(=O)NC(C)(C)C)cc1	15.2	-3.4	2.0	-3.9	0.7	17.3	14.1%	-0.6
29	Cc1ccc(C)c(OCCCC(C)(C)C(=O)O)c1	-11.5	-3.2	7.3	-4.4	-0.2	.	-10.9%	0.0
30	CCn1c2c(c(=N)c3c1CCC3)CCC2	-21.2	-5.4	-4.4	-2.0	0.7	-8.6	-7.4%	3.4
31	Cc1ccc(CN2CCC(CNC(=O)C3CCCN(c4ncnc5c4nc4n5CCCCC4)C3)CC2)cc1 (stereo not drawn)	44.7	7.5	-4.6	0.5	1.8	-12.0	.	3.9
32	Cc1ccc(-c2csc(NC(=O)CSc3nc4ccccc4c(=O)n3CCCN(C)C)n2)cc1	28.9	35.6*	1.9	6.3	-0.5	26.9	18.1%	3.6

(listing goes on)
item	compound	T cruzi inh	MLL AF4-AF9 inh	LANA-H2A inh	Beta cell apopt	A1 inh	Calb FLC	Vif A3G	RanGTP-Imp inh
33	CCOC(=O)/C=c1\s/c(=C\c2ccc(C(=O)OC)cc2)c(=O)n1CC(=O)Nc1ccccc1	-26.3	-0.7	3.2	-0.4	3.1	-15.2	9.6%	-0.2
34	COc1ccc(C(=O)NC2=NCCS2)c(OC)c1	14.1	-1.3	-1.3	-2.5	-5.4	18.0	.	-1.5
35	Cc1ccc(NC(=O)CN(C)C(=O)c2cccnc2Nc2cccc(C(F)(F)F)c2)cc1	34.2	-6.6	-3.9	4.5	-0.4	9.3	.	0.5
36	Cc1ccc(NC(=O)COC(=O)c2ccc3c(c2)C(=O)N(CCc2ccccc2)C3=O)c(C)c1	-13.9	.	2.0	-5.1	-3.4	15.0	1.3%	0.7
37	CCOC(=O)c1nn(-c2ccccc2)c(=O)c(C#N)c1C	-1.6	.	-6.7	-2.2	0.0	1.4	9.3%	2.9
38	CCN(CC(=O)NCCc1ccccc1)S(=O)(=O)c1ccccc1	-18.8	-8.5	2.6	.	0.4	-2.1	.	-1.0
39	Cn1c(C(=O)N2CCc3ccccc3C2)cc2oc3ccccc3c21	8.8	.	-2.3	-2.6	-0.6	0.0	9.6%	4.3
40	Cc1csc(NC(=O)CSc2nncs2)n1	-0.4	3.6	-0.8	-5.5	0.2	4.7	-9.6%	1.8

(further entries)
item	compound	T cruzi inh	MLL AF4-AF9 inh	LANA-H2A inh	Beta cell apopt	A1 inh	Calb FLC	Vif A3G	RanGTP-Imp inh
41	Cc1cccc(NC(=O)C(C)Oc2ccc(C)nc2[N+](=O)[O-])c1 (stereo not drawn)	.	3.2	-3.9	3.5	-0.8	.	.	.
42	CCC(=O)Nc1ccc(C(=O)CSc2nnc(-c3cccnc3)o2)cc1	-1.1	.	2.1	-2.6	1.4	5.6	-1.7%	1.9
43	COc1cccc(C(=O)O/N=C(\N)c2ccncc2)c1OC	6.1	.	-4.2	-2.0	0.0	28.1	-7.2%	0.2
44	COC(OC)C12c3ccccc3C(c3ccccc31)C1C(=O)N(c3cccnc3)C(=O)C12 (stereo not drawn)	14.6	-6.9	-2.9	0.3	2.6	-7.0	2.7%	7.7
45	C#CCOCCOCCOCCNc1nc(N2CCOCC2)nc(N2CCN(C(=O)[C@H]([C@@H](C)CC)n3cc([C@@H](N)CO)nn3)CC2)n1	-10.4	5.0	0.9	-0.6	-0.1	-5.9	9.2%	1.7
46	O=C(NCCc1csc(-c2cccnc2)n1)c1cccs1	5.1	-3.2	-0.8	-3.9	-1.0	5.0	9.8%	-5.4
47	C/C(=C/C(=O)O)C(=O)Nc1cccc(C(F)(F)F)c1	-17.7	-1.9	0.2	-11.6	0.3	17.4	.	-2.5
48	CCc1n[nH]c(=S)n1/N=C/c1ccc2c(c1)OCO2	2.3	.	-8.8	-1.6	-0.2	38.0	-2.2%	2.7

Next entries.
item	compound	T cruzi inh	MLL AF4-AF9 inh	LANA-H2A inh	Beta cell apopt	A1 inh	Calb FLC	Vif A3G	RanGTP-Imp inh
49	Fc1ccc(COc2ccc(-c3nnco3)cc2)cc1	-7.9	-1.1	-1.0	5.5	-6.1	1.8	.	-0.2
50	CCc1noc(C)c1C(=O)Nc1nc(-c2ccc(Cl)cc2Cl)c(C)s1	8.0	.	-2.3	4.7	2.4	-7.3	-55.8%	-1.6
51	COc1cccc(NC(=O)CN(C)C(=O)c2cccc(S(=O)(=O)N3CCN(c4ccccc4)CC3)c2)c1	4.4	4.4	0.5	9.3	-0.1	-1.3	.	7.1
52	COc1ccc(C(=O)NC(=S)Nc2cccc3ncccc23)cc1[N+](=O)[O-]	2.6	-3.5	0.8	7.4	-0.4	-0.3	-1.5%	3.2
53	O=C(COC(=O)c1cccc(N2C(=O)c3ccccc3C2=O)c1)Nc1ccccc1	-15.9	-9.9	-1.1	0.2	-0.4	-2.5	.	1.1
54	CCOc1ccc(Br)cc1/C(C)=N\NC1=NCCN1	0.8	.	-9.6	27.8	-0.2	-15.4	0.3%	4.6
55	COc1ccc(Cn2nnc(C(=O)Nc3ccc(F)cc3)c2N)cc1	-4.5	.	2.0	-1.3	0.6	-3.3	21.8%	7.3
56	Cc1ccc(S(=O)(=O)N[C@@H](Cc2ccccc2)C(=O)CCl)cc1	.	4.1	-12.9	-7.3	-0.2	.	?	.
